# Mtb betalactam: beta-lactam sensitization of Mtb H37Rv; M. tuberculosis H37Rv growth with meropenem, percent inhibition; hits of this screen are not shown here; inhibition, % at 25 µM; 330,000 compounds, 0.27% hits;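 active = about 74% or more and at least 40 points above the plate without the antibiotic, then above 30% in a dose series; inconclusive = first-round hits that could not be retested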;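 also: growth measured after seven days incubation then overnight dye step; 0% = bacteria only wells and 100% = bacteria with antibiotic; twin plates without the antibiotic show which effects depend on it; some results filed as inactive read as strong as hits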
# * hit, by the source's call; ? = inconclusive.
Molecule | Mtb betalactam
Cn1c(N)c(C(=O)CSc2nnc(Cc3cccs3)n2C2CC2)c(=O)n(C)c1=O | 1
NC(=O)COc1ccc2cc(-c3ccc(F)cc3)c(=O)oc2c1 | 3
COc1ccc(-c2nc(SCC(=O)N(CC(C)C)c3c(N)n(Cc4ccccc4)c(=O)[nH]c3=O)n[nH]2)cc1 | 6
O=C(CN1C(=O)NC2(CCCCC2)C1=O)NCCc1ccc(Cl)cc1Cl | -7
CN(C(=O)CSc1ncnc2ccccc12)C1CCS(=O)(=O)C1 (stereo not given) | -5
C[N+]1(C)C2CC(OC(=O)C(CO)c3ccccc3)CC1C1OC12 (stereo not given) | -1
COc1cccc(NC(=O)CN(C)C(C)C(=O)N2CCCCC2)c1 (stereo not given) | 5
CCN(C(=O)CSc1nnnn1-c1ccc(Cl)cc1)C1CCS(=O)(=O)C1 (stereo not given) | 0
CN(c1ccc(F)cc1)S(=O)(=O)c1ccc(Cl)c(C(=O)OCC(=O)NC2CC2)c1 | -1
O=C(NC(=S)Nc1ncc(Br)cc1Br)c1ccccc1 | -4
Cc1cc(C(=O)CN2C(=O)C(=O)N(Cc3ccco3)C2=O)c(C)n1CCc1ccccc1 | -5
O=C(c1c(F)cccc1F)N1CCN(S(=O)(=O)c2ccc3c(c2)OCCO3)CC1 | 8
N#Cc1cccc(NC(=O)CSc2sc3c(O)cc(=O)[nH]c3c2C#N)c1 | -1
CSc1ccccc1NC(=O)CSc1nnc(COc2ccccc2)o1 | 0
O=C(NCC1CCCO1)c1cccc(S(=O)(=O)Nc2cccc(C(F)(F)F)c2)c1 (stereo not given) | 2
Cc1ccccc1C(=O)N1CCC(C(=O)OCC(=O)Nc2cccc([N+](=O)[O-])c2C)CC1 | 2
C1=C(c2sc3ccccc3c2-c2ccc(OCCN3CCOCC3)cc2)CCCC1 | 56
COc1cc2cc(CCCO)oc(=O)c2cc1OC | -3
CC[C@@]1(C(=O)OC)N[C@H](CN(C)C(=O)COC)[C@@H]2C(=O)N(C)C(=O)[C@@H]21 | 1
CN(Cc1ccccc1)C(=O)CN1C(=O)NC2(CCCC2)C1=O | -1
O=S(=O)(NNc1ncc(C(F)(F)F)cc1Cl)c1ccc(F)cc1F | 1
Cc1ccc(C(=O)NCC(=O)Nc2ccc3c(c2)CCC3)cc1 | 0
O=C(CN1C(=O)NC2(CCCCCCC2)C1=O)Nc1ccc(Br)cc1 | 1
C[C@@H]1NS(=O)(=O)[C@H]2C[C@@H]3C=C[C@]2(O3)[C@H]1OC(=O)c1ccc(C(C)(C)C)cc1 | 0
CC(CNC(=O)COc1ccc2c(c1)OCO2)c1ccccc1 (stereo not given) | -5
COC(=O)C1=C(c2ccc(OCc3ccccc3)cc2)C[C@@H]2CC[C@H]1N2C(=O)NCc1cccc(OC)c1 | 2
Cc1ccc(C)c(OCCC(=O)OCC(=O)N2c3ccccc3NC(=O)C2(C)C)c1 | -3
CCCn1nc(C(=O)OCc2nc(N)nc(Nc3ccccc3C)n2)c2ccccc2c1=O | -2
CN(C(=O)c1ccc(NC(=O)C2CCCN(C(=O)OC(C)(C)C)C2)cc1)C1CCC1 (stereo not given) | -8
CCN(CC(=O)Nc1ccc(OC)cc1)C(=O)C1CCN(C(=O)c2ccc(Cl)cc2)CC1 | -13
CNc1ccc(C(=O)OCC(=O)NCc2ccc3c(c2)OCO3)cc1[N+](=O)[O-] | 0
COc1ccc(NS(=O)(=O)c2ccc(NN=Cc3ccc(C(=O)O)cc3)c([N+](=O)[O-])c2)cc1 | -5
Cc1ccc2c(c1)c1c3n2CCN(CC#N)C3CCC1 (stereo not given) | -4
CO[C@H]1[C@@H]2C=CO[C@@H](O[C@H]3O[C@@H](CO)[C@H](O)[C@@H](O)[C@@H]3O)[C@@H]2[C@@]2(CO)O[C@@H]12 | -7
C#CCOCCOCCOCCNc1nc(N2CCN(C(=O)[C@H](CCC(=O)O)n3cc([C@@H](N)[C@H](C)CC)nn3)CC2)nc(N2CCN(C(=O)[C@H](CCCCN)n3cc([C@@H](N)CC(N)=O)nn3)CC2)n1 | -7
O=C(NCc1ccccc1Cl)C1=CC=CN2CCS(=O)(=O)N=C12 | 2
COc1ccc(S(=O)(=O)N2CCOCC2)cc1NC(=O)COC(=O)CC1CC2CCC1C2 (stereo not given) | -2
C=CC[C@@H](CC(=O)N(CCO)Cc1ccccc1)C(=O)N[C@@H](COC(=O)[C@@H](CC=C)Cc1ccc(F)cc1)Cc1ccccc1 | 19
CCOC(=O)C1=C(COC(=O)c2ccc3ccccc3c2O)NC(=O)NC1C (stereo not given) | 3
Cc1ccc(CN(C(=O)c2csnn2)C(C(=O)NC2CCCC2)c2ccccn2)cc1 (stereo not given) | -4
COc1ccc(Cl)cc1NC(=O)CN(C)C(=O)CCCNC(=O)c1ccc(Cl)cc1 | 6
N=C1c2ccccc2CN1NC(=O)c1ccco1 | 1
COc1ccc2c(c1)[C@H]1[C@H](CO2)[C@H](c2ccccc2)[C@]2(C)C(=O)N(Cc3ccc(C)cc3)CC(=O)N12 | 2
C[C@H](CO)N1C[C@H](C)[C@@H](CN(C)Cc2ccncc2)Oc2c(NS(=O)(=O)c3cccs3)cccc2C1=O | -5
COc1cccc(NC(=O)CN(C)C(=O)C23CC4CC(CC(Cl)(C4)C2)C3)c1 | 6
Cc1ccc(S(=O)(=O)N2CCN(C(=O)CCc3c[nH]c4ccccc34)CC2)cc1 | -9
COc1ccc(Br)cc1CN1CCCCCC1 | -15
CC(=O)N1CCN(c2ccc(N)cc2)CC1 | -5
COc1ccc(CN(CC(=O)NCc2ccc(F)cc2)C(=O)c2csnn2)cc1 | 4
CCCCN(C(=O)c1c(-c2ccccc2)noc1C)c1c(N)n(CCC)c(=O)[nH]c1=O | -1

# Arranged by number of heavy atoms (ascending): three of the compounds above
Molecule | Mtb betalactam
COc1ccc(Cl)cc1NC(=O)CN(C)C(=O)CCCNC(=O)c1ccc(Cl)cc1 | 6
CCCCN(C(=O)c1c(-c2ccccc2)noc1C)c1c(N)n(CCC)c(=O)[nH]c1=O | -1
C=CC[C@@H](CC(=O)N(CCO)Cc1ccccc1)C(=O)N[C@@H](COC(=O)[C@@H](CC=C)Cc1ccc(F)cc1)Cc1ccccc1 | 19

# Grouped by structure: the compounds so far with a Cl atom
Molecule | Mtb betalactam
O=C(CN1C(=O)NC2(CCCCC2)C1=O)NCCc1ccc(Cl)cc1Cl | -7
CCN(C(=O)CSc1nnnn1-c1ccc(Cl)cc1)C1CCS(=O)(=O)C1 (stereo not given) | 0
CN(c1ccc(F)cc1)S(=O)(=O)c1ccc(Cl)c(C(=O)OCC(=O)NC2CC2)c1 | -1
O=S(=O)(NNc1ncc(C(F)(F)F)cc1Cl)c1ccc(F)cc1F | 1
CCN(CC(=O)Nc1ccc(OC)cc1)C(=O)C1CCN(C(=O)c2ccc(Cl)cc2)CC1 | -13
O=C(NCc1ccccc1Cl)C1=CC=CN2CCS(=O)(=O)N=C12 | 2
COc1ccc(Cl)cc1NC(=O)CN(C)C(=O)CCCNC(=O)c1ccc(Cl)cc1 | 6
COc1cccc(NC(=O)CN(C)C(=O)C23CC4CC(CC(Cl)(C4)C2)C3)c1 | 6

# (listing goes on)
Molecule | Mtb betalactam
COC(=O)[C@]1(Cc2ccccc2)N[C@H](CN(C)C(=O)Nc2ccc(C(F)(F)F)cc2)[C@@H]2C(=O)N(Cc3ccccc3)C(=O)[C@@H]21 | 0
O=c1oc(CCO)cc2ccc(-c3ccc4[nH]ccc4c3)cc12 | 0
CC(OC(=O)c1cc(=O)[nH]c2ccccc12)C(=O)NC1CCCC1 (stereo not given) | -1
COc1cccc(C(CNC(=O)C2CCN(C(=O)Nc3ccccc3)CC2)N(C)C)c1 (stereo not given) | -2
N#CCSc1ccccc1NC(=O)COC(=O)CCN1C(=O)C2CC=CCC2C1=O (stereo not given) | 4
COc1ccccc1CNC(=O)COC(=O)C1CC1 | 26
COc1cccc(-c2cc(C(=O)N3CCN(c4ccc(F)cc4)CC3)no2)c1 | -3
O=C(c1ccc(S(=O)(=O)N2CCCCCC2)cc1)N1CCN(Cc2ccccc2)CC1 | -2
O=C(CN1C(=O)NC(CCc2ccccc2)C1=O)Nc1ccc(F)c(F)c1F (stereo not given) | -5
O=C(COc1ccccc1Cl)NNC(=O)Cn1[nH]c(=O)c2ccccc2c1=O | -2
Cc1ccc(NC(=O)CN(C)C(=O)Cc2c[nH]c3ccccc23)cc1 | 2
CN(CC(=O)NC(=O)Nc1ccccc1F)Cc1ccccc1F | -4
CCOc1ccc(NC(=O)CN(C)C(=O)Cc2ccsc2)cc1OCC | -6
COC(=O)C1=C(c2cccc(C#N)c2)C[C@@H]2CC[C@H]1N2C(=O)NCCO | -2
Cc1cc(F)ccc1NC(=O)Cn1c(C)csc1=O | 2
CCOC(=O)c1ccc(/C=C2\c3ccccc3C(=O)N2c2ccccc2)cc1F | 81
CCc1noc(C)c1C(=O)OC(C)C(=O)c1c(C)[nH]c2ccccc12 (stereo not given) | 3
O=C(COC(=O)C1CC2CCCC(C1)C2=O)Nc1ccc(Cl)cn1 (stereo not given) | -1
O=[N+]([O-])c1cccc(O)c1 | 0
Cc1ccc(C(=O)NCC(=O)OCc2c(F)cccc2Cl)s1 | 2
COc1cc(OC)c(NC(=O)C2CCCO2)cc1Cl (stereo not given) | -13
CC(=O)c1ccc(OCC(=O)OC(C)C(=O)NC2CCCCC2)cc1 (stereo not given) | -9
CN(C)S(=O)(=O)c1ccc(Cl)c(C(=O)Nc2cccc3ncccc23)c1 | -7
O=C(COC(=O)c1cccc(S(=O)(=O)N2CCOCC2)c1)NCc1ccccc1 | -2
O=C(O)c1cc(O)c2c(c1)[C@@H]([C@H]1c3cc(C(=O)O)cc(O)c3C(=O)c3c(O[C@@H]4O[C@H](CO)[C@@H](O)[C@H](O)[C@H]4O)cccc31)c1cccc(O[C@@H]3O[C@H](CO)[C@@H](O)[C@H](O)[C@H]3O)c1C2=O | 13
O=C(O[C@@H](C(=O)O)[C@@H](OC(=O)c1ccccc1)C(=O)O)c1ccccc1 | -5
CCCCN(Cc1nc2ccccc2c(=O)[nH]1)C(=O)CN1C(=O)NC2(CCCCC2)C1=O | -9
Cc1cc(Cn2nc(-c3ccccc3C)cc2C(=O)O)on1 | 2
CCCCn1c(N)c(N(CC(C)C)C(=O)c2c(-c3ccccc3)noc2C)c(=O)[nH]c1=O | -9
COc1ccc(NC(=O)CSCC(=O)N2CCN(c3cccc(C(F)(F)F)c3)CC2)cc1 | -9
CC(=O)c1c(C)[nH]c(C(=O)OCc2cc(-c3ccco3)on2)c1C | 5
CN(CC(=O)Nc1cccc(S(=O)(=O)N2CCCC2)c1)Cc1ccccc1 | -6
c1ccc(-c2cncnc2)nc1 | 1
COC(=O)C1=C(c2cccc(OCc3ccccc3)c2)C[C@@H]2CC[C@H]1N2C(=O)NCc1cccc(OC)c1 | 4
C[C@H](CO)N1C[C@H](C)[C@@H](CN(C)Cc2ccncc2)Oc2c(NS(=O)(=O)c3ccc(Cl)cc3)cccc2C1=O | 2
COc1ccc(C2=NN(C(=O)CSc3nnnn3C)C(c3ccco3)C2)cc1 (stereo not given) | -3
Cc1ccc(CN(C)C(=O)COC(=O)CSc2cc(C)c3ccccc3n2)cc1 | -6
COc1ccccc1NS(=O)(=O)c1cc(NC(=O)c2cccnc2)ccc1N1CCCCC1 | 3
O=C(CN1CCN(S(=O)(=O)c2cccc(Cl)c2)CC1)N1CCCCC1 | 1
CC1(C)C(=O)Nc2ccccc2N1C(=O)COC(=O)CNS(=O)(=O)c1ccc(F)c(F)c1F | -6
CCc1ccc(CN2CCC(C(=O)Nc3cccc(-c4nnc(C)s4)c3)CC2)o1 | ?
CCOC(=O)c1c(C)[nH]c(C(=O)CN(C)CC(=O)Nc2ccccc2Cl)c1C | -10
NC(=O)CSc1ccc(S(=O)(=O)N2CCOCC2)cn1 | -4
O=C(COC(=O)Cc1ccc(F)cc1)NC(=O)NC1CCCC1 | 3
Cc1noc(C)c1NC(=O)N(C)C[C@H]1Oc2ccc(NC(=O)CCC(F)(F)F)cc2C(=O)N([C@H](C)CO)C[C@@H]1C | 6
CCOC(=O)C1=CC[C@@H](c2cc3ccc(OC)cc3n2C)N(S(=O)(=O)c2ccc(C)cc2)[C@H]1C(=O)OCC | -1
COc1ccc(NC(=O)CN2CCc3ccccc3C2)c([N+](=O)[O-])c1 | 3
COCC(=O)N(C)C[C@H]1N[C@@](C)(C(=O)OC)[C@H]2C(=O)N(C)C(=O)[C@@H]12 | 5
Cc1ccc(S(=O)(=O)N2CCN(C(=O)c3n[nH]c4ccccc34)CC2)cc1 | 2
CC(C)(C)OC(=O)C[C@@H]1C/C=C\C[C@H](CC(=O)NCCO)C(=O)N[C@@H](c2ccccc2)COC1=O | -1

# The results go on.
Molecule | Mtb betalactam
CC(=O)c1c(C)[nH]c(C(=O)CN2CCN(S(=O)(=O)c3ccc(C(C)C)cc3)CC2)c1C | -11
COc1cc(OC)c(N(C)S(=O)(=O)c2cccc(C(=O)OCC(=O)N3CCOCC3)c2)cc1Cl | -7
O=S(=O)(Nc1ccc(-n2cnnn2)cc1)c1ccc(Cl)cc1 | 0
COc1cc2c(cc1OC)-c1cc3ccc(OC)c(OC)c3c[n+]1CC2 | 6
Cc1ccc(C)c(C(=O)CCC(=O)NNC(=O)c2cccs2)c1 | 4
Nc1ccc(C(=O)OCC(=O)Nc2cccc(S(=O)(=O)NC3=NCCCCC3)c2)cc1[N+](=O)[O-] | -6
Cc1cc(OCC(=O)OCC(=O)N2c3ccccc3NC(=O)C2(C)C)ccc1Cl | -4
COc1ccc(C(C)=O)cc1CSc1ccc(S(=O)(=O)N2CCOCC2)cn1 | 2
CC(OC(=O)c1c[nH]c2ccccc12)C(=O)N1CCCC1 (stereo not given) | 4

# An excerpt; count on the stated rates, not on these rows.
